High-throughput results from PubChem BioAssay.
VDR inh = Inhibitors of the vitamin D receptor (VDR): qHTS; VDR-SRC2-3 peptide fluorescence polarization, 2 h; Potency, µM, inactives show max response, negative = inhibition, most hits filed as inhibitors; hit rate 0.93% among 400,000; AID 504847, 2011; active = well fitted inhibition curve with a large enough effect; inconclusive = small, poorly fitted or top-dose-only effect, or another doubt; inactive = no such curve, though single readings can be large or run the other way; also: series mostly up to about 120 µM
Target sequence (P11473 whole entry, looked up): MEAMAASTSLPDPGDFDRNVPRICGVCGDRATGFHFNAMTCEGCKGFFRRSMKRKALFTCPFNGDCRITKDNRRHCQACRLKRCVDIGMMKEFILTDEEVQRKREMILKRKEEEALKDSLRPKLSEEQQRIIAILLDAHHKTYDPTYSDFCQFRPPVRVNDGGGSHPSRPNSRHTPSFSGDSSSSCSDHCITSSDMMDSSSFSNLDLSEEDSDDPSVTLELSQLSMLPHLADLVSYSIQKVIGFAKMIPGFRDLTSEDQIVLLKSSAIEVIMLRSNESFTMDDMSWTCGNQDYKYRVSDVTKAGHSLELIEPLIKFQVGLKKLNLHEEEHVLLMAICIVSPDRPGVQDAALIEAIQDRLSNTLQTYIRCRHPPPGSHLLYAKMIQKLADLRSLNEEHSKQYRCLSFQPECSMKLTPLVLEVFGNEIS
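Reagent solutions, kept cold and dark, are dispensed first; compounds are then pinned in at 23 nl, plates briefly spun, and incubated 2 h at ambient temperature. Inhibition of VDR–SRC2-3 peptide binding is read by fluorescence polarization.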
The depositor's hits bear a star; & = joins results of further samples. % is scaled to controls: 0 for no effect and ±100 for the full control effect; potency is read from the fitted curve at half-maximal effect. These rows are one share of the data; the hit share may differ from the screen's.

For COC(=O)c1c(-c2ccc(Cl)cc2)noc1N1CCN(c2ccc(F)cc2)CC1 the results were VDR inh 10%.
For CC(=O)Nc1ccccc1NC(=O)C(F)(F)F the results were VDR inh 4%.
For CCCn1c2ccccc2c2cnn(CC(=O)N(C)c3ccccc3CC)c(=O)c21 the results were VDR inh 5%.
CCn1cc(C(=O)O)c(=O)c2cc(F)c(N3CCN(C(=S)NC(=O)c4ccccc4C)CC3)cc21 was read as VDR inh -5%.
`CCOc1ccccc1NC(=O)CCNS(=O)(=O)c1ccc2c(c1)CCN2C(=O)C1CC1` gave VDR inh 4%.
Screening CNC(=S)Nc1cccc(C(=O)OC)c1 returned VDR inh 1%.
Screening CN(CC(O)CON=C1c2ccccc2-c2ccccc21)S(=O)(=O)c1ccc(Br)cc1 (stereo not drawn) returned VDR inh inconclusive.
For COc1ccc(CNC(=O)CCn2cccc2)cc1 the results were VDR inh -2%.
`Cc1ccc(S(=O)(=O)N(Cc2cc3cccc(C)c3[nH]c2=O)c2ccccc2)cc1` gave VDR inh 8%.
`O=c1ccc(Cc2ccc(Cl)cc2)n[nH]1` gave VDR inh 4%.

Part of the list above in order of molar mass, ascending:
For COc1ccc(CNC(=O)CCn2cccc2)cc1 the results were VDR inh -2%.
For COC(=O)c1c(-c2ccc(Cl)cc2)noc1N1CCN(c2ccc(F)cc2)CC1 the results were VDR inh 10%.
`CCOc1ccccc1NC(=O)CCNS(=O)(=O)c1ccc2c(c1)CCN2C(=O)C1CC1` gave VDR inh 4%.
Screening CN(CC(O)CON=C1c2ccccc2-c2ccccc21)S(=O)(=O)c1ccc(Br)cc1 (stereo not drawn) returned VDR inh inconclusive.

For convenience, 3 of the compounds above:
For COC(=O)c1c(-c2ccc(Cl)cc2)noc1N1CCN(c2ccc(F)cc2)CC1 the results were VDR inh 10%.
For CC(=O)Nc1ccccc1NC(=O)C(F)(F)F the results were VDR inh 4%.
For CCCn1c2ccccc2c2cnn(CC(=O)N(C)c3ccccc3CC)c(=O)c21 the results were VDR inh 5%.

The listing continues:
For CC(Oc1ccc(F)cc1)C(O)CCN(C)C (stereo not drawn) the results were VDR inh -8%.
Screening COc1ccc(N2CCN(C(=O)c3c(C)oc4ncnc(N5CCCCC5)c34)CC2)cc1 returned VDR inh 16%.
Screening O=C(NC(=S)Nc1cccnc1)c1ccccc1 returned VDR inh -1%.
Fc1ccc(N2CN(Cc3cccnc3)CNC2=S)cc1 was read as VDR inh -19%.
Screening Cc1ccc(NS(=O)(=O)c2cc(C(=O)OCC(=O)NCC3CCCO3)ccc2C)cc1 (stereo not drawn) returned VDR inh -21%.
Screening C/C(=C\C(=O)N1CCc2ccccc21)C(=O)O returned VDR inh -18%.
Cc1cc([N+](=O)[O-])nn1CC(=O)N(C)Cc1ccccc1 was read as VDR inh -2%.
Cc1noc(C)c1C(=O)Nc1nc2ccc(S(C)(=O)=O)cc2s1 was read as VDR inh -6%.
`Cc1c(N2C(=O)CSC23C(=O)Nc2ccccc23)c(=O)n(-c2ccccc2)n1C` (stereo not drawn) gave VDR inh 13%.
CCOc1ccc(Cc2n[nH]c(=S)n2Cc2ccccc2)cc1 was read as VDR inh -4%.
COc1ccc(S(=O)(=O)N2CC(C(=O)O)Oc3ccc(Cl)cc32)cc1 (stereo not drawn) was read as VDR inh 0%.
For CN1/C(=C/C(=O)CSc2ccccc2C(=O)O)C(C)(C)c2ccccc21 the results were VDR inh -7%.
For Cc1cc(C)n(CCC(=O)N/N=C/c2ccc(O)cc2)n1 the results were VDR inh -2%.
`c1ccc(C2=NNC(=NCc3ccc4c(c3)OCO4)SC2)cc1` gave VDR inh -21%.
For Cc1ccc(C(=O)Nc2cccc(C(O)c3ccccc3)c2)cc1 (stereo not drawn) the results were VDR inh -5%.
Screening Cc1ccc(S(=O)(=O)c2nc(S(C)(=O)=O)sc2N2CCOCC2)cc1 returned VDR inh -10%.
For CC(C)C(c1nnnn1Cc1ccccc1)N(CCCO)Cc1cc2cc3c(cc2[nH]c1=O)OCO3 (stereo not drawn) the results were VDR inh 9%.
COc1cccc(N2CC(NC(=O)COc3ccc4ccccc4c3)CC2=O)c1 (stereo not drawn) was read as VDR inh 1%.
Screening COc1ccccc1CC(=O)NNS(=O)(=O)c1ccc([N+](=O)[O-])cc1 returned VDR inh -4%.
For CCN1CCN(CCCNC(=O)CS(=O)(=O)Cc2nc(-c3ccccc3C)oc2C)CC1 the results were VDR inh -18%&-14%.
`COc1ccc(OC)c(C(c2nnnn2C(C)(C)C)N2CCc3ccccc3C2)c1` (stereo not drawn) gave VDR inh -2%.
Screening CC(Nc1nc(-c2ccc(F)cc2)cs1)c1nc2cc(Cl)c(N3CCCCC3)cc2n1CCOCCO (stereo not drawn) returned VDR inh -2%.
`CCC(C)c1ccc(O)c(N)c1` (stereo not drawn) gave VDR inh -8%.
CCN(CC(=O)Nc1ccc(NC(C)=O)cc1)C(=O)CSCc1c(C)noc1C was read as VDR inh -10%.
`Cc1ccc(OCCn2c(C)c(/C=N/n3cnnc3)c3ccccc32)cc1` gave VDR inh 3%.
For CN1C(=O)N(C)C2CC1N(C)C(=O)N2C the results were VDR inh 8%.
`O=c1nc(/C=C/c2cccn2-c2ccc([N+](=O)[O-])cc2)cc(C(F)(F)F)[nH]1` gave VDR inh -9%.
For Cc1ccc(NC(=O)[C@@H]2CCC(=O)N2C2OC(=O)c3ccccc32)cc1Cl (stereo partly drawn) the results were VDR inh -1%.
For O=C1Nc2ccc(Cl)cc2/C1=C/C1CC=CCC1 (stereo not drawn) the results were VDR inh inconclusive.
For CC(Sc1nnc(-c2ccccc2F)n1C1CC1)C(=O)NC(N)=O (stereo not drawn) the results were VDR inh -13%.
COc1ccccc1CN1CC(C(=O)N2CCOCC2)CCC1=O (stereo not drawn) was read as VDR inh -6%.
For C=CCN1C(=O)C2(OCCCO2)c2cccc(Cl)c21 the results were VDR inh 13%.
Screening CCC(=O)N1CCN(c2nc(CC)nc3sc4c(c23)CCCC4)CC1 returned VDR inh -22%.
Screening O=C(NCCc1ccccc1)C1CCCN1S(=O)(=O)c1ccc(F)cc1 (stereo not drawn) returned VDR inh 17%.
Screening COC(=O)/C(=C\c1ccc(O)cc1)c1nc2ccccc2[nH]1 returned VDR inh -13%.
COc1ccc(OC)c(NC(=O)c2c(NCc3ccc(C)o3)sc3c2CCC(C)C3)c1 (stereo not drawn) was read as VDR inh -10%.
`CCNC(=O)N1CCC(n2nccc2NC(=O)CCOc2ccccc2)CC1` gave VDR inh -8%.
Screening CC(=O)N1CCCc2cc(S(=O)(=O)CCC(=O)N3CCN(c4ccccc4)CC3)ccc21 returned VDR inh 5%.
For CCOC(=O)C1(O)CC(C)=NN1C(=O)c1cccc(Cl)c1 (stereo not drawn) the results were VDR inh 9%.
COCCNC(=O)c1nc2ccccc2s1 was read as VDR inh -20%.
For O=C(Oc1ccc2ccc(OC(=O)N3CCOCC3)cc2c1)N1CCOCC1 the results were VDR inh -9%.
Screening COc1ccc(CNC(=O)C/C(C)=N/NC(=O)COc2ccc(C)cc2Br)cc1 returned VDR inh -18%.
For Cc1cccc(Nc2nc(-c3ccc(F)cc3)cs2)n1 the results were VDR inh -23%.
Screening CC(C)(C)OC(=O)NNC(=O)c1cccs1 returned VDR inh 12%.
`O=C(NC1CC1)C1=C[C@@H](c2ccc(C(F)(F)F)cc2)C[C@@H](OCc2ccc(CO)cc2)O1` gave VDR inh 1%.
CCCS(=O)(=O)N1CCC(Cc2ccc(OC)cc2)(C(=O)OCC)CC1 was read as VDR inh -5%.
CCN(Cc1cc2ccccc2[nH]c1=O)S(=O)(=O)c1ccc(OC)cc1 was read as VDR inh 12%.
Screening CCOC(=O)c1c(-c2ccc(OC)cc2)nc2nonc2c1N returned VDR inh 13%.
`Cn1ccnc1SCC(=O)Nc1cc(C(F)(F)F)ccc1N1CCOCC1` gave VDR inh -3%.
`CCOc1ccc2oc(C(=O)N(CC)CC(=O)Nc3c(F)cccc3F)c(C)c2c1` gave VDR inh 3%.
For Cc1cc(C)n(CCCN2C(=O)c3cccc4cccc(c34)C2=O)n1 the results were VDR inh 11%.
CCCCSc1nc2sc3c(c2c(=O)n1-c1ccc(C)cc1)CCN(C)C3 was read as VDR inh -14%.
CN1CCN(C2=C(Cl)C(=O)N(c3ccc(Cl)c(Cl)c3)C2=O)CC1 was read as VDR inh inconclusive.
Screening CN1CCCN(C(=O)c2cc(=O)[nH]c3ccccc23)c2nc3ccccc3nc21 returned VDR inh -8%.
`O=C(CSc1nnc(CNC(=O)c2c(F)cccc2F)o1)Nc1ccc2c(c1)OCO2` gave VDR inh -4%.
`O=[N+]([O-])c1cc(-c2ccc(/C=N/n3cnnc3)o2)ccc1Cl` gave VDR inh 4%.
Screening COc1ccc(-c2nc3c(c(SCC(=O)Nc4ccccc4F)n2)Cc2cc(C)ccc2O3)cc1 returned VDR inh 0%.
CCOc1ccc(C(=O)NCC(=O)OCC(=O)Nc2nnc(-c3ccccc3)o2)cc1 was read as VDR inh -23%.
`Cc1ccccc1Cn1cc(NC(=O)COc2ccccc2)cn1` gave VDR inh -4%.
Screening COC(=O)c1cccc(-n2[nH]nnc2=S)c1 returned VDR inh 79µM*.
For Nc1cc(S(=O)(=O)N2CCCCC2)ccc1Oc1ccccc1 the results were VDR inh 6%.
For CC(=O)c1ccc(C(=O)N2CCCC(C(=O)c3ccc(Cl)cc3)C2)s1 (stereo not drawn) the results were VDR inh 10%.
CC[C@H]1OC(=O)[C@H](C)[C@@H](O[C@H]2C[C@@](C)(OC)[C@@H](O)[C@H](C)O2)[C@H](C)[C@@H](O[C@@H]2O[C@H](C)C[C@H](N(C)C)[C@H]2O)[C@](C)(O)C[C@@H](C)C(=O)[C@H](C)[C@@H](O)[C@]1(C)O was read as VDR inh -2%.
CNS(=O)(=O)c1cn(CC(=O)Nc2cccc(OC)c2)cc1S(=O)(=O)NC was read as VDR inh 0%.
For CC(=O)C1=C(O)C(=O)N(Cc2ccccc2)C1c1ccccc1F (stereo not drawn) the results were VDR inh -9%.
For COc1ccc(C(=O)C2CCCN(C(=O)CCc3scnc3C)C2)c(C)c1 (stereo not drawn) the results were VDR inh 9%.
Screening COC/C=C/C1=CC2=CC(=O)C(C)(OC(=O)c3cnc4ccccc4n3)C(=O)C2=CN1c1ccc(OC)cc1 (stereo not drawn) returned VDR inh -19%.
CC(=O)c1ccc(NC(=O)N2CCN(c3cccc(Cl)c3)CC2)cc1 was read as VDR inh 7%.
For Cn1c(=O)cc(OCCCC(=O)NCc2cccnc2)c2ccccc21 the results were VDR inh 10%.
Screening Clc1ccc(-c2nnc(C3CCCCC3)o2)cc1 returned VDR inh -5%.
Screening O=C(O)CCCC(=O)Nc1ccc(-n2ccc(C(F)(F)F)n2)cc1 returned VDR inh -1%.
CCC(C)NC(=O)CCC(=O)NNc1nc2ccccc2c2nc(C)nn12 (stereo not drawn) was read as VDR inh -3%&8%.
`COc1cccc(N(C(=O)Cn2nnc(-c3cccs3)n2)C(C(=O)NC2CCCCC2)c2ccncc2)c1` (stereo not drawn) gave VDR inh -6%.
For Cc1cc(NC(=O)CN2CCCCC2C)no1 (stereo not drawn) the results were VDR inh 1%.
`O=S(=O)(c1cccc(C(F)(F)F)c1)N1CCC(O)(c2cccnc2)CC1` gave VDR inh 5%.
`Cn1c(SCC(=O)NC2CCCCC2)nnc1-c1ccccn1` gave VDR inh 18%.
Cc1ccccc1Cn1c(=O)n(CCc2ccccc2)c(=O)c2c(C)c(C)sc21 was read as VDR inh 2%.
Screening CCC(CC)Nc1ccc(C(CC(N)=O)NC(=O)Cc2ccc(Br)cc2)cc1[N+](=O)[O-] (stereo not drawn) returned VDR inh -15%.
`Cc1ccc(C(c2nnnn2C2CCCC2)N2CCN(c3nc4ccccc4s3)CC2)cc1` (stereo not drawn) gave VDR inh 3%.
`Cc1sc2ncnc(SCC(=O)NC3CCCC3)c2c1C` gave VDR inh 10%.

Structures above that contain a thiophene ring, fused or not, in the order listed:
Screening CCC(=O)N1CCN(c2nc(CC)nc3sc4c(c23)CCCC4)CC1 returned VDR inh -22%.
COc1ccc(OC)c(NC(=O)c2c(NCc3ccc(C)o3)sc3c2CCC(C)C3)c1 (stereo not drawn) was read as VDR inh -10%.
Screening CC(C)(C)OC(=O)NNC(=O)c1cccs1 returned VDR inh 12%.
CCCCSc1nc2sc3c(c2c(=O)n1-c1ccc(C)cc1)CCN(C)C3 was read as VDR inh -14%.
For CC(=O)c1ccc(C(=O)N2CCCC(C(=O)c3ccc(Cl)cc3)C2)s1 (stereo not drawn) the results were VDR inh 10%.
`COc1cccc(N(C(=O)Cn2nnc(-c3cccs3)n2)C(C(=O)NC2CCCCC2)c2ccncc2)c1` (stereo not drawn) gave VDR inh -6%.
Cc1ccccc1Cn1c(=O)n(CCc2ccccc2)c(=O)c2c(C)c(C)sc21 was read as VDR inh 2%.
`Cc1sc2ncnc(SCC(=O)NC3CCCC3)c2c1C` gave VDR inh 10%.

The list goes on.
`CC(=O)c1cc(C#N)c(N(C)Cc2ccccc2)nc1C` gave VDR inh 14%.
`N#C/C(=C\c1cn(Cc2ccccc2F)c2ccccc12)C(=O)NCc1ccco1` gave VDR inh -20%.
Screening O=C(Cn1ncn2nc(-c3ccccc3)cc2c1=O)NCc1ccccn1 returned VDR inh -24%.
For COc1ccccc1CCNC(=O)C(=O)NCC1OCCN1S(=O)(=O)c1cc(F)ccc1F (stereo not drawn) the results were VDR inh 7%.
`C[C@@]12C(=O)OC(=O)[C@]1(C)[C@H]1CC[C@@H]2O1` gave VDR inh -5%.
C=C1CSc2nc(=O)c3c(C)c(C)sc3n21 was read as VDR inh -6%.
`Cc1ccc(-n2nc(C)c3c(C)c(CCC(=O)O)c(C)nc32)cc1` gave VDR inh 4%.
